# Compound activity (PubChem)
# Proteasome disasm = inhibitors of ATP-driven 26S proteasome dissociation, primary screen, biochemical, bead-based flow cytometry, GFP-tagged proteasome; anti-FLAG beads, GFP-proteasome disassembly; actives 0.2% (n = 24,000); AID 751, 2007; inhibition of disassembly, % (no concentration beside the values);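 active = above 40%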;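 note: plate controls were ATP control with full disassembly for no effect and ATP-gamma-S intact proteasomes for full effect; higher percent means more bead fluorescence retained so stronger block of disassembly; stock transfer was 100 nL into about 10 µL; wells with too few beads may also be inconclusive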
# VCAM-1 rise = enhancers of VCAM-1 display on endothelial cells, cell-based, plate reader, pooled HUVEC, TNFa stimulus (AID 455); HUVEC TNFa-induced VCAM-1 immunofluorescence, plate reader; numbers were filed only for top-ranked candidate wells; augmentation, % at 5 µM; actives 0.2% (n = 10,000);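 active = a compound raising TNF-alpha-driven VCAM-1 surface staining, with its hit status upheld on visual or statistical review; inactive = the rest, including hits rejected on review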;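 note: 0% = TNFa with vehicle and 100% = strongest image-checked hit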
# Starred values were filed as active, the others as inactive; i = inactive; . = not tested or not shown.
Compound | VCAM-1 rise | Proteasome disasm
CC1Cn2c(nnc2-c2ccc(F)cc2)S1 (stereo unspecified) | i | -0.6
c1ccc(-c2ccc(C(c3ccccc3)n3ccnc3)cc2)cc1 (stereo unspecified) | i | 0.3
COc1cccc(NC(=O)c2ocnc2C)c1 | . | -0.4
Cc1ccc2nsnc2c1S(=O)(=O)N1CCN(C(=O)C2CCCO2)CC1 (stereo unspecified) | . | -1.9
COc1ccc(OC)c2[nH]c(=O)c(CCNC(=O)C(C)C)cc12 | i | -0.4
CCOc1nc(NCCc2ccc(OC)c(OC)c2)nc(NC(C)(C)CO)n1 | . | 1.2
O=C(CSc1nnc(C2COc3ccccc3O2)o1)Nc1nccs1 (stereo unspecified) | . | 0.5
O=C(Cn1ncc2c(=O)oc3ccccc3c21)N1CCC(N2CCCCC2)CC1 | . | -3.8
Cc1ccc(S(=O)(=O)N2CCCC2CO)cc1 (stereo unspecified) | . | 0.6
CC(=O)N1CCc2cc(S(=O)(=O)Nc3cccc(C(F)(F)F)c3)ccc21 | . | 0.1
COc1ccc(COCC(O)CN2CCOCC2)cc1OC (stereo unspecified) | . | -2.3
CCOC(=O)CNC(=O)CSc1ncnc2c1nnn2-c1ccc(F)cc1 | . | 1.4
Cc1noc(C)c1S(=O)(=O)N(CC(=O)O)c1ccc2c(c1)OCO2 | . | -1.8
CN(C)S(=O)(=O)c1cccc(C(=O)Nc2cccnc2)c1 | i | 0.3
CCOc1ccc(NC(=O)CN2CCN(CC(=O)Nc3ccc4c(c3)OCO4)CC2)cc1 | . | -2.7
CC(C)NC(=O)c1ccc2c(=O)n(C3CCCC3)c(=S)[nH]c2c1 | . | -3.3
COC(=O)c1ccc2c(c1)NC(=O)C(N1CCCCC1)S2 (stereo unspecified) | . | 4.5
Clc1ccc(Cl)c2sc(N3CCCC3)nc12 | . | 0.8
CC1(C)CC(=O)C2=C(C1)OC(c1cccs1)C(C#N)=C2N (stereo unspecified) | . | -0.1
COC(=O)c1[nH]c(C)c(/C(O)=C2\C(=O)C(=O)N(CCN3CCOCC3)C2c2cccs2)c1C (stereo unspecified) | i | 1.4
CSc1nc2sc3c(c2c(=O)n1C)CCC(C)C3 (stereo unspecified) | . | -1.7
O=C(CSc1c2c(nc3ccc(Cl)cc13)CCCC2)N1CCN(C(=O)c2ccco2)CC1 | . | 1.5
C=CCNC(=O)c1cc(=O)c2ccccc2o1 | . | -0.8
CCOC(=O)C1CCN(C(=O)c2ccc(OC)cc2OC)CC1 | i | -3.2
COc1cc(C)ccc1NC(=O)c1ccc(S(=O)(=O)N2CCOCC2)cc1 | . | -1.5

# 3 entries already listed, arranged by heavy-atom count, descending.
Compound | VCAM-1 rise | Proteasome disasm
O=C(CSc1c2c(nc3ccc(Cl)cc13)CCCC2)N1CCN(C(=O)c2ccco2)CC1 | . | 1.5
O=C(CSc1nnc(C2COc3ccccc3O2)o1)Nc1nccs1 (stereo unspecified) | . | 0.5
CSc1nc2sc3c(c2c(=O)n1C)CCC(C)C3 (stereo unspecified) | . | -1.7

# Shown as labelled records: part of the list above
O=C(CSc1nnc(C2COc3ccccc3O2)o1)Nc1nccs1 (stereo unspecified)
  VCAM-1 rise: .	Proteasome disasm: 0.5
Cc1ccc(S(=O)(=O)N2CCCC2CO)cc1 (stereo unspecified)
  VCAM-1 rise: .	Proteasome disasm: 0.6

# Further results:
Compound | VCAM-1 rise | Proteasome disasm
CCN(CCCNC(=O)c1[nH]c(C)c(C(C)=O)c1C)c1ccccc1 | . | 1.4
CC(C)NC(=O)CSCc1ccccc1Cl | i | -0.3
CCOC(=O)CSc1nc(N)c2c3c(sc2n1)CCCC3 | i | 2.3
CCOc1ccc(C2CC(c3cccc(OC)c3)n3nc(N)nc3N2)cc1 (stereo unspecified) | . | 0.0
CSC1=NCCN1C(=O)c1ccc(S(=O)(=O)N(C)C)cc1 | . | 0.9
O=C(C1CC1)N1CCc2cc(S(=O)(=O)NCC3COc4ccccc4O3)ccc21 (stereo unspecified) | . | 0.1
O=C1CC(N2CCN(c3cccc(C(F)(F)F)c3)CC2)C(=O)N1c1ccccc1 (stereo unspecified) | i | 2.5
Cc1nc2sc(C(c3cccc(F)c3)N3CC(C)OC(C)C3)c(O)n2n1 (stereo unspecified) | . | -0.7
CCOC(=O)c1nnn(CC(=O)Nc2cccc(OC)c2)c1C(=O)OCC | i | 0.5
COc1ccccc1CN1C(=O)c2ccncc2C1=O | . | -0.2
CCOC(=O)Cc1csc(NC(=O)CN(C)S(=O)(=O)c2ccc3c(c2)CCC(=O)N3)n1 | i | 0.4
CC1CCCC(C)N1CCCNC(=O)c1cc2c(=O)n(C)c3ccccc3c2n1C (stereo unspecified) | . | 10
COc1cccc(OCCSc2nnc3sc4ccccc4n23)c1 | i | 0.1
CCn1c(SCC(=O)c2ccccc2)nc2c(c1=O)SC(C)C2 (stereo unspecified) | . | -0.7
COCCN1C(=O)c2ccccc2C(C(=O)N2CCN(c3ccccn3)CC2)C1c1ccc(F)cc1 (stereo unspecified) | . | -0.4
Clc1cc(Cl)c2nc(N3CCCC3)sc2c1 | . | 0.7
c1ccc(SCc2nc3ccccc3[nH]2)nc1 | i | 0.1
COCCNC(=O)COc1cc(=O)n(C)c2ccccc12 | . | 1.0
COc1cccc(CNC(=O)CCCNS(=O)(=O)c2cccs2)c1 | . | 0.9
COc1ccc(N2Cc3cccc(C(=O)O)c3C2=O)cc1 | . | 0.5
O=C(NCc1ccc(Cl)cc1)C1CCCN(S(=O)(=O)c2cnc[nH]2)C1 (stereo unspecified) | . | -0.5
CCC(=O)N1CCc2cc(S(=O)(=O)NC(C(=O)NCc3ccc(C)cc3)C(C)C)ccc21 (stereo unspecified) | . | -1.5
O=C(CC1(O)C(=O)Nc2ccccc21)c1ccc2c(c1)OCO2 (stereo unspecified) | i | -1.7
CC(C)(C)N=C1NC(=NC(C)(C)C)c2ccccc21 | i | -0.6
CCOC(=O)N1CCN(C(=O)C2CCN(C(=O)c3cc4sccc4n3CC)CC2)CC1 | . | 1.0

# Next part.
Compound | VCAM-1 rise | Proteasome disasm
CCn1ncc(C2=NOC(C(=O)Nc3c(C)n(C)n(-c4ccccc4)c3=O)C2)c1C (stereo unspecified) | . | 0.7
CCN(C(=O)CCc1nc(-c2ccc(OC)cc2)no1)c1cc(OC)ccc1OC | . | -0.3
COc1ccc2nc(NC(=O)C3CCN(S(=O)(=O)c4cnc[nH]4)CC3)sc2c1 | . | -3.3
Cc1ccc(CCN2CC(C(=O)NCCCN3CCOCC3)CC2=O)cc1 (stereo unspecified) | . | 0.1
CCOC(=O)CCSCC(=O)Nc1cc(C)on1 | . | -0.1
O=C(O)CC(NS(=O)(=O)c1ccc(Br)cc1)c1ccco1 (stereo unspecified) | . | 3.2
COc1cc(NC(=O)Nc2cccc(C(C)=O)c2)cc(OC)c1OC | i | -11
COc1ccc(Nc2oc(COc3ccccc3F)nc2C#N)cc1 | . | -0.7
COC(=O)/C=c1/sc2nc3ccccc3n2c1=O | . | 1.5
COc1cccc(OCC(=O)N(Cc2nc(-c3ccc(Cl)cc3)no2)C(C)C)c1 | . | -3.5
Cc1cccc(NC2=NC3(CCCCC3)N=C(N)N2)c1 | . | 0.5
Cc1cc(N)ccc1NC(=O)c1ccccc1 | . | 1.4
O=C(CCCCCn1c(=S)[nH]c2cc3c(cc2c1=O)OCO3)N1CCN(C2CCCCC2)CC1 | . | 1.3
O=S(=O)(NCCN1CCCC1)c1cccc2cccnc12 | . | -0.9
CCc1ccc(S(=O)(=O)NCc2cn3ccccc3n2)s1 | . | -3.7
Cc1ccc(NC(=O)CCN2C(=O)c3ccncc3C2=O)cc1 | . | 0.2
CCCCNC(=O)NS(=O)(=O)c1ccc(C)cc1 | i | -0.6
CCCCN(C)S(=O)(=O)c1ccc(C(=O)Nc2nnc(-c3cccs3)o2)cc1 | . | -0.2
O=C(NCCCN1CCCC1=O)c1ccc2c(=O)n(Cc3ccco3)c(=S)[nH]c2c1 | i | -0.7
COc1ccccc1NC(=O)CN1CCN(CC(=O)Nc2ccc(F)cc2)CC1 | . | 0.3
CN(C)CCCNC(=O)c1ccc2[nH]c3ccccc3c2c1 | . | -0.7
COc1ccc(N(CC(=O)N2CCN(c3ccccc3)CC2)S(=O)(=O)c2c(C)noc2C)cc1 | . | 1.2
CN(C)S(=O)(=O)c1ccc(Oc2ccc(S(=O)(=O)N(C)C)cc2)cc1 | i | -1.9
Cc1cc(NC(=O)c2cc(-c3ccco3)on2)no1 | . | 0.7
CCOc1ccc(C2CC(c3cccc(C)c3)n3ncnc3N2)cc1 (stereo unspecified) | i | 0.0

# Following part
Compound | VCAM-1 rise | Proteasome disasm
COc1cccc(-n2nnc3c(=O)n(CC(=O)OCc4ccccc4)cnc32)c1 | . | 0.2
O=C1Nc2ccccc2C(O)(C(=O)NC2CC2)N1c1ccc(Cl)c(Cl)c1 (stereo unspecified) | . | 0.2
CCOC(=O)c1cnn(-c2sc(C(=O)OCC)c(C)c2C(=O)OCC)c1N | i | -7.4
COC(=O)c1cnc2c(C(F)(F)F)cccc2c1OC | i | 0.2
Cc1ccc(CNC(=O)CN(C)S(=O)(=O)c2cccc3nsnc23)cc1 | . | -0.7
CCOc1ccc(NC(=O)c2ccncc2)cc1 | i | -1.8
Cc1oc(-c2ccccc2)[n+]([O-])c1C | . | 0.7
CCS(=O)(=O)N1CCC(C(=O)NCc2ccccn2)CC1 | . | -1.5
Cc1ccccc1-n1c(=O)c2ccccc2n2nnnc12 | i | -0.7
Cn1cc(C(=O)NC2CCCCCC2)c(=O)c2cc(S(=O)(=O)N3CCCC3)ccc21 | . | 0.9
Cc1ccc(S(=O)(=O)NC(CC(=O)N2CCc3ccccc32)c2ccco2)cc1 (stereo unspecified) | . | 0.0
CCOC(=O)C1CCCN(c2c(N3CCC(N4CCCCC4)CC3)c(=O)c2=O)C1 (stereo unspecified) | . | -1.6
Cc1ccc(-c2ccc(SCC(=O)Nc3nonc3C)nn2)cc1 | i | -1.7
Cc1ccc(Nc2cc(C)nc3ncnn23)c(Cl)c1 | i | 0.1
Cn1c2c(c(=O)n(C)c1=O)C(c1cccc(Br)c1)C1C(=O)c3ccccc3C1=N2 (stereo unspecified) | i | -2.9
COC1CCCCC1Nc1cccc(SC)c1 (stereo unspecified) | i | -2.8
COc1ccc2cc3cc(C(=O)NCCc4ccc(OC)c(OC)c4)oc3nc2c1 | . | 0.2
CCOC(=O)C1CCCN(C(=O)c2sc3nc(C)nc(N4CCOCC4)c3c2C)C1 (stereo unspecified) | . | 0.7
COc1ccc(CC(=O)OCC(=O)NC(=O)NC2CCCCC2)cc1 | i | 0.4
CC(C(=O)NC1CCCCCC1)N(c1ccccc1)S(C)(=O)=O (stereo unspecified) | i | -2.0
Cc1c2cnn(CC(=O)N3CCN(c4ncccn4)CC3)c(=O)c2c(C)n1Cc1ccc(F)cc1 | i | -1.5
Cc1cc(C)n(CNc2nc(C(F)(F)F)cs2)n1 | . | 0.3
CCOC(=O)N1CCN(C(=O)c2cnc(Nc3ccccc3OC)c3ccccc23)CC1 | . | 1.4
CS(=O)(=O)N(CC(=O)N1CCCCCC1)c1ccc(Br)cc1 | i | 0.3
Cc1cc(NC(=O)Nc2cccs2)no1 | . | 0.9

# Next compounds:
Compound | VCAM-1 rise | Proteasome disasm
CCOc1ccc(C(=O)OCc2nnc(-c3cccs3)o2)cc1OC | i | 2.5
O=C(NCc1ccc2c(c1)OCO2)c1nnc(Cc2ccc(F)cc2)o1 | . | -0.6
COC(=O)Cc1c(C)nc2nc[nH]n2c1=O | i | -3.6
Cc1c(NC(=O)C(C)OC(=O)C(NC(=O)c2ccco2)C(C)C)c(=O)n(-c2ccccc2)n1C (stereo unspecified) | i | 1.0
O=S(=O)(c1ccc(Br)s1)N1CCCCC1 | i | -6.1
CCn1cc(C(=O)N2CCCCC2)c(=O)c2cc(S(=O)(=O)N3CCC(C)CC3)ccc21 | . | 0.2
O=C1CCc2cc(S(=O)(=O)NC(C(=O)NCc3cccnc3)c3ccccc3)ccc2N1 (stereo unspecified) | . | -1.4
CCCOC(=O)C1C2C=CC3(CN(c4cccc(Cl)c4)C(=O)C13)O2 (stereo unspecified) | i | -0.2
O=C1c2ccccc2NC(c2cccc(F)c2)N1Cc1ccco1 (stereo unspecified) | i | 1.6
CCc1nn(CC(=O)NCCCN(CC)Cc2ccccc2)c(=O)c2cc3sccc3n12 | . | -0.1
C=C(Cl)COC(=O)[C@H]1C2C=CC(C2)C1C(=O)O (stereo partly specified) | i | 1.2
O=C(Cc1ccccc1)N1CCCC(c2nc(-c3cccs3)no2)C1 (stereo unspecified) | i | -0.3
Nc1nc(C2CC2)c(Sc2sc(N)nc2C2CC2)s1 | . | -0.2
COC(=O)c1ccccc1NC(=O)C1CCN(S(=O)(=O)c2cc(C)ccc2OC)CC1 | i | -1.2
CCOc1ccc(C(=O)CN2CCN(S(=O)(=O)c3ccc(Br)cc3)CC2)cc1 | . | 0.5
COc1ccc(Cn2nnnc2C(c2ccccn2)N2CCN(c3cc(Cl)ccc3C)CC2)cc1 (stereo unspecified) | i | 3.0
Cc1ccc(S(=O)(=O)n2ccnc2)cc1C | . | 1.3
Cn1c(NC(=O)C2c3ccccc3Oc3ccccc32)cc(=O)n(C)c1=O | . | 0.2
CN(C)c1ccc(CNC(=O)C2CCN(S(=O)(=O)c3ccc4c(c3)CCC(=O)N4)CC2)cc1 | . | -1.7
Cc1cc(NC(=O)c2ccccc2)ncc1NC(=O)c1ccco1 | i | 2.2

# Not all compounds are listed; count on the stated rates, not on these rows.
